# Vaccinia inh: Vaccinia orthopox stage-specific inhibition | Vaccinia-infected cells, mCherry/Venus stage reporter fluorescence; stronger effect = lower value; some inactives read as strong as hits | activity change (mCherry), % (no concentration beside the values) | hit rate 0.01% among 89,000;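 active = mCherry past -33% and 40 or more points under the early reporter, replicates agreeing; inconclusive = past -33% without that gap or agreement; tested in A549 cells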;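 note: scaled between vehicle wells and reference inhibitor wells; 23 nL library stock went into each well; one replicate is shown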
# Vaccinia inh Venus: second read-out of Vaccinia inh, no call of its own (marks repeat the call); activity change (Venus), %; measured here: Venus reporter, other viral stage;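 negative = less Venus signal; first of two replicates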
# * marks the source's active call; other numbers are inactive results; ? = inconclusive; / = no result given; & = joins results of further samples. Only part of the results is shown. The share of hits here may be higher or lower than overall.
# The opening 7 compounds (preview)
compound | Vaccinia inh | Vaccinia inh Venus
O=C(C[C@H]1C[C@@H]2c3cc(NC(=O)NC4CCCC4)ccc3O[C@@H]2[C@@H](CO)O1)NCc1cccc(F)c1 | 0 | -2
COc1ccc(CN(C)C[C@H]2Oc3ccc(NC(=O)Nc4ccc(OC)cc4)cc3C(=O)N([C@H](C)CO)C[C@@H]2C)cc1 | -14 | -3
C[C@@H]1CN([C@@H](C)CO)C(=O)Cc2cc(NC(=O)C3CCCCC3)ccc2O[C@H]1CN(C)C(=O)NC1CCCCC1 | 9 | 8
CN1C(=O)c2cc(NC(=O)c3ccc(F)cc3)ccc2OC[C@@H]2O[C@@H](CC(=O)NC3CCC3)CC[C@H]21 | 7 | 9
CN(C)C(=O)C[C@H]1CC[C@@H]2[C@H](COc3ccc(NC(=O)C4CCCCC4)cc3C(=O)N2C)O1 | 15 | 12
CN1CCN(C(=O)C[C@H]2CC[C@@H]3[C@H](COC[C@@H](O)CN3Cc3ccc(Oc4ccccc4)cc3)O2)CC1 | -14 | -7
COc1cccc(-c2cnc3c(c2)C(=O)N([C@H](C)CO)C[C@H](C)[C@@H](CN(C)C(C)=O)O3)c1 | 7 | 6

# This part in full, previewed entries included:
compound | Vaccinia inh | Vaccinia inh Venus
O=C(C[C@H]1C[C@@H]2c3cc(NC(=O)NC4CCCC4)ccc3O[C@@H]2[C@@H](CO)O1)NCc1cccc(F)c1 | 0 | -2
COc1ccc(CN(C)C[C@H]2Oc3ccc(NC(=O)Nc4ccc(OC)cc4)cc3C(=O)N([C@H](C)CO)C[C@@H]2C)cc1 | -14 | -3
C[C@@H]1CN([C@@H](C)CO)C(=O)Cc2cc(NC(=O)C3CCCCC3)ccc2O[C@H]1CN(C)C(=O)NC1CCCCC1 | 9 | 8
CN1C(=O)c2cc(NC(=O)c3ccc(F)cc3)ccc2OC[C@@H]2O[C@@H](CC(=O)NC3CCC3)CC[C@H]21 | 7 | 9
CN(C)C(=O)C[C@H]1CC[C@@H]2[C@H](COc3ccc(NC(=O)C4CCCCC4)cc3C(=O)N2C)O1 | 15 | 12
CN1CCN(C(=O)C[C@H]2CC[C@@H]3[C@H](COC[C@@H](O)CN3Cc3ccc(Oc4ccccc4)cc3)O2)CC1 | -14 | -7
COc1cccc(-c2cnc3c(c2)C(=O)N([C@H](C)CO)C[C@H](C)[C@@H](CN(C)C(C)=O)O3)c1 | 7 | 6
CCCN1[C@H](C(=O)NCc2ccccn2)[C@@H](CO)[C@@H]2Cn3c(ccc(C4=CCCC4)c3=O)[C@@H]21 | 22 | 17
CCCN(C)C[C@@H]1OCCCC[C@H](C)Oc2ccc(NC(=O)Nc3cccc4ccccc34)cc2C(=O)N([C@H](C)CO)C[C@@H]1C | -14 | -5
O=S(=O)(Cc1ccccc1)N1CCCCN2[C@H](CO)[C@@H](c3ccc(-c4ccc(F)cc4)cc3)[C@@H]2C1 | -25 | -12
CN1C(=O)c2cc(NS(C)(=O)=O)ccc2OC[C@@H]2O[C@H](CC(=O)O)CC[C@H]21 | -7 | 3
Fc1ccc(F)c(CN2[C@@H]3CNC[C@H]2C3c2ccc(-c3ccccc3)cc2)c1 (some centres undefined) | 5&-32 | 8&-18
Cc1noc(C)c1NC(=O)N(C)C[C@@H]1OCCCC[C@H](C)Oc2ccc(NC(=O)Nc3ccc(F)cc3)cc2C(=O)N([C@@H](C)CO)C[C@H]1C | 19 | 11
COc1ccccc1-c1cn(CC[C@H]2CC[C@H](NC(=O)C3CCOCC3)[C@@H](CO)O2)nn1 | 4 | 6
C[C@H]1CN([C@@H](C)CO)C(=O)Cc2cc(NC(=O)Cn3cnnn3)ccc2O[C@@H]1CN(C)Cc1ccncc1 | 28 | 11
COc1ccccc1NC(=O)NC[C@@H]1CC[C@@H]2[C@@H](CN2S(=O)(=O)c2ccc(Cl)cc2)O1 | 5 | 2
C[C@@H]1CCCCO[C@@H](CN(C)S(=O)(=O)c2ccc(Cl)cc2)[C@H](C)CN([C@@H](C)CO)C(=O)c2cc(NC(=O)c3ccncc3)ccc2O1 | ? | /
CC(C)NC(=O)N1[C@H](CO)[C@@H](c2ccccc2)C12CN(C(=O)c1ccccn1)C2 | 10 | 12
CO[C@H](CN(C)S(=O)(=O)c1cn(C)cn1)[C@H](C)CN(C(=O)Nc1ccc(F)cc1)[C@@H](C)CO | 13 | 7
C[C@H]1CN([C@@H](C)CO)C(=O)Cc2cc(NS(=O)(=O)c3cn(C)cn3)ccc2O[C@H]1CN(C)Cc1ccc(Cl)c(Cl)c1 | -4 | 4
C[C@H](CO)N1C[C@H](C)[C@@H](CN(C)Cc2ccccc2)Oc2ccc(NC(=O)Nc3ccc4c(c3)OCO4)cc2C1=O | -9 | -5
C[C@@H]1CN([C@@H](C)CO)C(=O)c2cc(NS(=O)(=O)c3ccc(Cl)cc3)ccc2O[C@@H](C)CCCCO[C@H]1CN(C)C(=O)Cc1ccccc1 | -1 | -3
COc1ccc(S(=O)(=O)N(C)C[C@H]2Oc3ccc(NC(=O)Cn4cnnn4)cc3C(=O)N([C@@H](C)CO)C[C@@H]2C)cc1 | 14 | 10
CCS(=O)(=O)Nc1ccc2c(c1)C(=O)N(C)[C@H]1CC[C@H](CC(=O)Nc3ccccc3)O[C@H]1CO2 | 9 | 2
CC(C)C#Cc1ccc2c(c1)O[C@@H](CN(C)CC1CCOCC1)[C@@H](C)CN([C@H](C)CO)S2(=O)=O | -13 | -6
C[C@H](CO)N1C[C@H](C)[C@H](CN(C)C(=O)Nc2ccccc2)Oc2ccc(N(C)C)cc2C1=O | 15 | 3
C[C@H]1CN([C@@H](C)CO)C(=O)Cc2cc(NS(=O)(=O)c3ccc(F)cc3)ccc2O[C@@H]1CN(C)C | 13 | 21
O=C(Nc1ccc2c(c1)[C@@H]1C[C@@H](CC(=O)N3CCOCC3)O[C@@H](CO)[C@@H]1O2)NC1CCCCC1 | 5 | 3
CC(C)NC(=O)N(C)C[C@H]1OCCCC[C@@H](C)Oc2ccc(NS(=O)(=O)c3cn(C)cn3)cc2C(=O)N([C@H](C)CO)C[C@H]1C | 3 | -3
C[C@H](CO)N1C[C@H](C)[C@H](CN(C)C(=O)Nc2cccc3ccccc23)Oc2ncc(C#CCC3CCCC3)cc2C1=O | -7 | -13
N#C[C@H]1[C@@H](c2ccccc2-c2ccccc2F)[C@H](CO)N1C(=O)c1cccc(F)c1 | 8 | 5
CN(C)c1ccc2c(c1)[C@H]1C[C@H](CC(=O)N3CCc4ccccc4C3)O[C@@H](CO)[C@H]1O2 | -1 | 7
CCCNC(=O)N1CC(=O)N2[C@H](CO)[C@H](c3ccc(C#Cc4cccc(OC)c4)cc3)[C@H]2C1 | -23 | -12
COCC(=O)Nc1ccc2c(c1)[C@H]1C[C@@H](CC(=O)NCC3CC3)O[C@@H](CO)[C@H]1O2 | 6 | 13
C[C@H](CO)N1C[C@H](C)[C@H](CN(C)C(=O)Nc2ccnc(N3CCOCC3)c2)OCc2cnnn2CCCC1=O | 8 | 9
C[C@@H]1CCCCO[C@@H](CN(C)C(=O)C2CCCCC2)[C@@H](C)CN([C@@H](C)CO)C(=O)c2cc(NS(=O)(=O)c3ccccc3)ccc2O1 | -34 | -25
C[C@H]1CCCCO[C@@H](CN(C)C(=O)CCCN(C)C)[C@@H](C)CN([C@@H](C)CO)C(=O)c2cc(NC(=O)Nc3ccc(F)cc3)ccc2O1 | 10 | 0
C[C@@H]1CN([C@@H](C)CO)C(=O)c2cc(NC(=O)C3CCCCC3)ccc2O[C@@H](C)CCCCO[C@@H]1CN(C)C(=O)NC1CCCCC1 | -12 | -11
CCNC(=O)C[C@@H]1CC[C@@H]2[C@H](COC[C@@H](O)CN2C(=O)Nc2ccc(C(F)(F)F)cc2)O1 | ? | /
COc1cccc(NC(=O)N(C)C[C@@H]2Oc3cc(C#Cc4ccc(F)cc4)ccc3S(=O)(=O)N([C@H](C)CO)C[C@H]2C)c1 | ? | /
CCCNC(=O)N(C)C[C@@H]1Oc2cc(-c3ccncc3)ccc2S(=O)(=O)N([C@@H](C)CO)C[C@H]1C | -1 | -1
CO[C@@H]1CN(C)C(=O)c2cc(NC(=O)C3CCOCC3)ccc2OC[C@H](C)N(CC2CC2)C[C@H]1C | -4 | 2
Cc1noc(C)c1NC(=O)N(C)C[C@H]1Oc2ccc(NC(=O)CCN3CCOCC3)cc2CC(=O)N([C@@H](C)CO)C[C@H]1C | -4 | 7
CC(=O)N(C)C[C@H]1Oc2ncc(C#Cc3ccccc3)cc2C(=O)N([C@@H](C)CO)C[C@@H]1C | 11 | 5
CCCN(C)C[C@@H]1OCCCC[C@@H](C)Oc2ccc(NS(=O)(=O)c3cccs3)cc2C(=O)N([C@H](C)CO)C[C@@H]1C | 8 | 5
Cc1ccc(S(=O)(=O)Nc2ccc3c(c2)C(=O)N([C@@H](C)CO)C[C@@H](C)[C@@H](CN(C)CC2CCCCC2)OCCCC[C@@H](C)O3)cc1 | ? | /
O=C(C[C@@H]1CC[C@@H](NC(=O)c2cccnc2)[C@@H](CO)O1)NCCN1CCCCC1 | -1 | 8
O=C(Nc1ccccc1F)N1CCCCN2[C@H](CO)[C@H](c3ccc(C#Cc4cccnc4)cc3)[C@H]2C1 | -17 | -16
O=C(C1CCOCC1)N1CC(=O)N2[C@H](CO)[C@@H](c3ccc(C#Cc4cccc(F)c4)cc3)[C@@H]2C1 | ? | /
COc1ccc2c3c(n(C)c2c1)[C@@H](CO)N(CC1CC1)CC31CN(S(=O)(=O)c2cccs2)C1 | -25 | -17
COCC(=O)Nc1ccc2c(c1)OC[C@H](C)N(C(=O)COC)C[C@@H](C)[C@H](OC)CN(C)C2=O | 18 | 9
C[C@H](CO)N1C[C@H](C)[C@@H](CN(C)Cc2cccnc2)Oc2cc(C3=CCCCC3)ccc2S1(=O)=O | ? | /
O=C(C[C@@H]1CC[C@H](NC(=O)C2CCC2)[C@H](CO)O1)NC1CCCCC1 | 7 | 8
O=C(C[C@@H]1C[C@@H]2c3cc(NC(=O)NC4CCCC4)ccc3O[C@@H]2[C@H](CO)O1)NC1CCCC1 | 1 | -1
CC(C)(C)[C@@H]1C=C(C(=O)N2CCCCCCC2)O[C@H](OCc2ccc(CO)cc2)C1 | -4 | -1
C[C@H]1CN([C@@H](C)CO)C(=O)c2cccc(NC(=O)C3CCCCC3)c2O[C@H]1CN(C)Cc1ccc(Cl)c(Cl)c1 | -16 | -16
OC[C@H]1[C@@H](c2ccc(C3=CCCC3)cc2)[C@@H]2CN(Cc3ccncc3)CCCCN12 | 12 | 10
C[C@@H]1CN([C@H](C)CO)C(=O)CCCn2nncc2CO[C@H]1CN(C)S(=O)(=O)c1ccc2ccccc2c1 | 5&2 | -5&-1
C[C@H]1CN([C@@H](C)CO)C(=O)c2cccc(NS(=O)(=O)c3ccccc3)c2O[C@@H]1CN(C)C(=O)Nc1ccc(F)cc1 | -4 | -13
COCCCNC(=O)[C@]1(Cc2ccccc2N=[N+]=[N-])N=C(c2ccc(OCCCO)cc2)O[C@@H]1c1ccccc1N=[N+]=[N-] | ? | /

# Further results follow.
compound | Vaccinia inh | Vaccinia inh Venus
COCC(=O)Nc1ccc2c(c1)OC[C@@H](C)N(C(C)=O)C[C@@H](C)[C@H](OC)CN(C)C2=O | -10 | -5
OCc1ccc(-c2cc[n+](Cc3cc4c(cc3Br)OCO4)cc2)cc1 | 6 | 2
C[C@@H]1CN([C@@H](C)CO)C(=O)Cc2cc(NC(=O)Nc3ccc4c(c3)OCO4)ccc2O[C@@H]1CN(C)CC1CCCCC1 | ? | /
O=C(Nc1ccc(Cl)cc1)N[C@H]1CC[C@@H](CCNC(=O)c2cc(Cl)cc(Cl)c2)O[C@@H]1CO | -32 | -29
C[C@H](CO)N1C[C@H](C)[C@H](CN(C)S(=O)(=O)c2cn(C)cn2)Oc2ccc(N(C)C)cc2CC1=O | 12 | 8
C[C@@H]1CN([C@@H](C)CO)S(=O)(=O)c2ccc(C#CC3CC3)cc2O[C@H]1CN(C)S(C)(=O)=O | -20 | -12
CN(C)CCCNC(=O)C[C@H]1CC[C@H]2[C@H](COc3ccc(NS(C)(=O)=O)cc3C(=O)N2C)O1 | 4 | 3
COc1ccc(NC(=O)Nc2ccc3c(c2)[C@H]2C[C@@H](CC(=O)NCc4ccccn4)O[C@H](CO)[C@H]2O3)cc1 | 35 | 17
O=C(C1CCC1)N1C[C@@H]2[C@H](c3ccccc31)[C@@H](CO)N2C(=O)Nc1cccc(F)c1 | -11 | 7
CO[C@@H]1CN(C)C(=O)c2cc(NC(=O)Nc3ccccc3F)ccc2OC[C@@H](C)N(Cc2ccccc2C(=O)O)C[C@@H]1C | 22 | 11
C[C@H]1CN([C@@H](C)CO)C(=O)c2cc(-c3ccc(C#N)cc3)cnc2O[C@H]1CN(C)Cc1ccncc1 | 8 | 11
C[C@@H]1CCCCO[C@H](CN(C)C)[C@H](C)CN([C@H](C)CO)C(=O)c2cc(NC(=O)Nc3cccc4ccccc34)ccc2O1 | ? | /
COc1ccc(CCNC(=O)[C@@H]2c3ccccc3C(=O)N(CC34CC5CC(CC(C5)C3)C4)[C@H]2c2ccc(CO)cc2)cc1 | -4 | 2
C[C@H]1CN([C@@H](C)CO)S(=O)(=O)c2ccc(-c3ccc(C(=O)N(C)C)cc3)cc2O[C@H]1CN(C)C | 14 | 4
C[C@H](CO)N1C[C@H](C)[C@@H](CN(C)Cc2ccccc2C(=O)O)Oc2ncc(C3=CCCC3)cc2C1=O | 22 | 7
C[C@@H]1CN([C@H](C)CO)C(=O)Cc2cc(NC(=O)c3ccncc3)ccc2O[C@@H]1CN(C)Cc1ccc(C(=O)O)cc1 | 22 | 11
C[C@H](CO)N1C[C@H](C)[C@H](CN(C)Cc2ccc(C(=O)O)cc2)Oc2c(NS(C)(=O)=O)cccc2C1=O | 12 | 8
CCNC(=O)Nc1ccc2c(c1)C(=O)N(C)[C@@H]1CC[C@H](CC(=O)NCc3ccccc3F)O[C@H]1CO2 | -3 | -3
Cc1noc(C)c1NC(=O)N(C)C[C@H]1Oc2ccc(NC(=O)C3CC3)cc2C(=O)N([C@@H](C)CO)C[C@H]1C | 4 | 0

# High-throughput results deposited in PubChem by Broad Institute.
